Screens (PubChem BioAssay)
BJeLR viability: BJeLR cell viability loss; BJeLR (HRASV12) viability, CellTiter-Glo ATP luminescence, 48 h; reference of the scale not given here; actives 0.17% (n = 300,000); inhibition, % (test concentration not listed);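 active = replicate mean above 50%; inconclusive = above 50% but judged a plate artefact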;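 note: 50 nL library stock added to about 25 µL; numbers are from one replicate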
PrP UTR inh: suppresses PrP 5' UTR mRNA reporter expression. cell-based PrP 5' UTR mRNA reporter, plate reader. AID 488862. actives 0.35% (n = 340,000). inhibition, % (test concentration not listed);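 active = every replicate at 50% or more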;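 note: 0 = median of the neutral control wells; tested in H4 reporter cells; numbers are from one replicate; inactives centre near -14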
ugtP null kill: kills S. aureus RN4220 lacking UgtP; AID 1259309; S. aureus RN4220 ugtP deletion, OD600 growth, 16 h; some inactives read as strong as hits; growth inhibition, % (concentration not given with the values); actives 0.54% (n = 330,000);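 active = z-score under -3 and OD600 up to 0.15 on both plates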;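 note: plate controls were untreated wells for no effect and antibiotic for full effect; wells of about 80 µL received 100 nL stock; the first replicate is given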
Mtb hypoxia inh: Mtb hypoxia fluorescent reporter inhibition. M. tuberculosis hypoxia-regulated fluorescent reporter, fluorescence. fluorescence inhibition, % (test concentration not listed). actives 0.1% (n = 300,000);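 active = 35 to 45% if threefold the growth effect, above 45% if 1.5-fold the growth effect; inactive = the rest, general growth blockers included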;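 note: wells of about 50 µL received 100 nL stock; 0% = vehicle wells and 100% = reference inhibitor wells; whole bacteria with a GFP reporter of the hypoxia response; strong numbers were not always called active; many hits fall short of the cut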
Sa RN4220 lethal: kills Staphylococcus aureus RN4220; S. aureus RN4220 growth, OD600, 16 h; inhibition, % (test concentration not listed); actives 0.33% (n = 330,000);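 active = z-score of -3 or lower and OD600 up to 0.18 on both plates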;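 note: plate controls were untreated cells for no effect and reference antibiotic for full effect; stock transfer was 100 nL into about 80 µL; one replicate is shown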
Bead autofluor: compound fluorescence in toxin protease inhibitor counterscreen | actives 3.1% (n = 360,000) | fluorescence intensity (no concentration beside the values) | compound autofluorescence counterscreen, microsphere flow cytometry; stronger effect = higher value;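 active = at least 3 SD above the mean of all compounds, about 16000 in these data; inconclusive = too few beads counted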;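 note: 100 nL of 1 mM stock went into each well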
Mtb hypoxia inh growth: further read-out of Mtb hypoxia inh, marked with its call; growth inhibition, %; measured here: M. tuberculosis growth (absorbance);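 0% = vehicle and 100% = reference antibiotic; read after six days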
Active calls of the source: *; ? = inconclusive; . = not tested or not shown.

SMILES	BJeLR viability	PrP UTR inh	ugtP null kill	Mtb hypoxia inh	Mtb hypoxia inh growth	Sa RN4220 lethal	Bead autofluor
Cc1ccc(C(=O)NN=Cc2ccc([N+](=O)[O-])s2)cn1	.	.	88*	.	.	68	.
COc1ccccc1OCCCn1cc(C(C)=O)c2ccccc21	-7	-14	10	2	-6	4.2	4150
Cc1nc2ccccc2n1CC(=O)NN	1	-13	2	9	4	0.5	2240
O=C(NCC1CCCO1)C1CCN(S(=O)(=O)c2ccccc2)CC1 (configuration not stated)	4	-12	1	7	-5	-0.1	3078
O=C(c1cccc(S(=O)(=O)Nc2ccccc2Cl)c1)N1CCN(c2ccccc2O)CC1	.	-30	-4	3	-2	13	8003
CN(C)S(=O)(=O)c1ccc(Cl)c(C(=O)NCC2CCCCC2)c1	1	-15	4	5	5	1.7	3608
COc1ccc(/C=C2\CCc3ccccc3C2=O)cc1CN1CCOCC1	4	-54	8	17	13	1.6	3776
CCCc1c(O)nc(SCC(=O)O)[nH]c1=O	2	-18	10	14	7	6.1	4157
Cc1ccc(C(=O)OCC(=O)Nc2cccc(S(=O)(=O)N3CCCCC3)c2)o1	.	6	3	8	33	1.2	8564
O=C(NC(N1CCOCC1)C(Cl)(Cl)Cl)c1cc([N+](=O)[O-])cc([N+](=O)[O-])c1 (configuration not stated)	5	-24	10	1	20	18	4465
CCOP(=O)(OCC)C(NC(=O)c1ccccc1)=C(Cl)Cl	-1	-15	5	-5	-1	2.6	9686
CCOC(=O)N1CCC(N(CCN(C)C)C(=S)Nc2cc(C)ccc2C)CC1	-5	-12	8	11	8	4.2	2440
COc1ccc(NC(=O)N2CCC3(CC2)OCCO3)cc1	5	-16	3	-2	7	-0.4	2716
C[C@@]12CCC3[C@@](CCC4[C@@]3(C)CCC[C@@]4(C)C(=O)O)(CC1=O)C2 (some centres not stated)	.	-6	17	10	9	17	2920
CCC(C)Oc1cccc(C(=O)Nc2ccccc2N2CCOCC2)c1 (configuration not stated)	-9	-25	-8	5	6	6.5	9743

Single records (already shown). Values in the order: BJeLR viability | PrP UTR inh | ugtP null kill | Mtb hypoxia inh | Mtb hypoxia inh growth | Sa RN4220 lethal | Bead autofluor
Entry for CCOC(=O)N1CCC(N(CCN(C)C)C(=S)Nc2cc(C)ccc2C)CC1 → -5 | -12 | 8 | 11 | 8 | 4.2 | 2440
Entry for O=C(c1cccc(S(=O)(=O)Nc2ccccc2Cl)c1)N1CCN(c2ccccc2O)CC1 → . | -30 | -4 | 3 | -2 | 13 | 8003
Entry for O=C(NCC1CCCO1)C1CCN(S(=O)(=O)c2ccccc2)CC1 (configuration not stated) → 4 | -12 | 1 | 7 | -5 | -0.1 | 3078

New compounds follow:
SMILES	BJeLR viability	PrP UTR inh	ugtP null kill	Mtb hypoxia inh	Mtb hypoxia inh growth	Sa RN4220 lethal	Bead autofluor
Cc1[nH]c2ccccc2c1/C=N/NC(=O)c1cccc(Br)c1	1	-27	.	.	.	.	13920
CCN(CC)CCN(C(=O)/C=C/c1cccs1)c1nc2ccc(C)cc2s1	-7	5	-10	-11	-6	-4.4	4764
CCOC(=O)c1nnn(-c2ccc(OC)cc2)c1N	.	-11	3	.	.	-1.1	3875
NCc1ccccc1	.	-63	5	4	1	7.6	6113
C[C@@]12CCC=CC1C(c1ccc(C=Cc3ccccc3)cc1F)N(Cc1ccccc1)C2=O (some centres not stated)	.	.	-7	-10	7	-3.4	.
Cc1ccc(S(=O)(=O)NCc2nc(-c3ccccc3)no2)cc1	4	-13	6	7	6	5.2	5642
CN(C)c1ccc(/C=N/NC(=O)c2ccc(Cn3cc(Br)cn3)o2)cc1	-5	-33	.	.	.	.	6712
COc1cccc(C(=O)NNC(=O)c2cccc3ccccc23)c1	.	-61	-2	5	6	2.2	3935
CC(Cc1ccccc1)NC(=O)CSc1nc2nc3c(cc2c(=O)n1-c1ccccc1)COC(C)(C)C3 (configuration not stated)	8	-5	4	-1	-7	1.4	4114
CC1(C)CC(=O)C=C(NC2=CC3OC(c4ccccc4)OCC3OC2=O)C1 (configuration not stated)	-2	9	-2	-8	0	-3.8	2355
COC(=O)c1cn(NC(=O)c2ccc(F)cc2)c(=O)c2ccccc12	5	-18	9	4	8	7.5	3840
Cc1cccc(C(=O)N2CCC(=O)N(C(COCc3ccccc3)Cc3ccccc3)CC2)c1 (configuration not stated)	-11	-6	-13	8	3	-0.2	4144
O=C(CN1CCN(S(=O)(=O)c2ccc(Br)cc2)CC1)NN=Cc1ccc(Cl)c([N+](=O)[O-])c1	.	.	-7	5	1	-2.6	.
Cc1c(C(=O)N2CCOCC2)c(S(=O)(=O)Nc2ccc(Br)cc2F)c(C)n1C	6	-6	-4	10	10	3.1	5453
COc1ccc(/C=C/c2nnc(NC(=O)COc3ccc(C)cc3)s2)cc1	-30	-29	-4	0	10	2.2	2456
O=C(CC1CC=CCC(NC(=O)OCC2c3ccccc3-c3ccccc32)C(=O)OCC(Cc2ccccc2)NC1=O)NC(CO)Cc1ccccc1 (configuration not stated)	.	.	-12	.	.	3.2	.
O=C(CCCOc1ccc(Cl)cc1Cl)NN=Cc1cccc([N+](=O)[O-])c1	.	.	-22	1	12	5.5	.
Cc1cccn2c(=O)nc(SCC(=O)N3CCOCC3)nc12	3	-6	3	-5	3	3.8	.
COc1ccc(CNC(=O)c2cc(=O)c3c(C)cc(C)cc3o2)cc1	21	-19	15	13	1	4.9	3850
CCc1ccc(N(CC(=O)NCc2ccco2)C(=O)CCC(=O)Nc2ccccn2)cc1	-12	-15	-1	1	-1	2.4	3019
COc1ccc(NC2CCCN(C(=O)c3cccs3)C2)cc1 (configuration not stated)	-4	-12	7	8	6	5.1	7393
CC(C)(C)c1cc(C(F)(F)F)nc(SCCCNC(=O)c2ccco2)n1	-5	-19	4	.	.	-2.5	4418
Cn1c(Cc2cccc3ccccc23)nnc1SCc1ccc([N+](=O)[O-])cc1	17	-24	-1	4	-1	0.7	2223
Cc1cc(OCC(=O)N(C)Cc2ccccc2)ccc1Br	6	-31	-2	6	5	4.3	3793
COc1ccc(C2(c3ccc(OC)cc3)NC(=O)N(CC(=O)NC3(C#N)CCCCC3)C2=O)cc1	.	-10	0	21	5	-0.9	3856
CC(=O)Oc1ccc2occ(/C=N/c3cc(=O)[nH]c(=S)[nH]3)c(=O)c2c1	-8	-9	.	.	.	.	4417
Cn1c(=O)c(C(=O)c2ccc(S(C)(=O)=O)c(Cl)c2Cl)c(O)c2ccccc21	-14	-18	19	14	9	-0.1	3967
O=C(COc1ccc2ccccc2c1)NNC(=O)c1cccs1	-2	-25	.	.	.	.	2508
CCCn1c(=O)c2ccccc2n2c(SCCOc3ccc(OC)cc3)nnc12	1	-13	8	0	-8	3.7	7191
COc1cc(S(=O)(=O)n2nc(C)cc2C)ccc1Cl	-8	-31	-6	1	4	5.2	3704
C=C(C)Cn1c(CCn2c3ccccc3c3ccccc32)n[nH]c1=S	12	-15	-23	-6	9	2.9	2446
O=[N+]([O-])c1cccc(CN2CCN(Cc3ccco3)CC2)c1	-13	-16	13	10	2	5.4	3356
Oc1c(C(Nc2ccccn2)c2ccccn2)ccc2cccnc12 (configuration not stated)	10	19	-7	16	1	15	4487
O=C1C2C(c3ccc(F)cc3)N3C(=O)N(c4cccc(Cl)c4)C(=O)[C@@]3(Cc3ccccc3)C2C(=O)N1C1CCCCC1 (some centres not stated)	.	.	-13	11	7	0.7	.
COC(=O)C1=C(C)NC(C)=C(C(=O)OC)C1C(=O)OCC(=O)N1CCCCC1C (configuration not stated)	.	-42	7	7	-4	4.4	4167
CCOC(=O)C(=NNc1ccc(OC)cc1)Sc1nnc(CCc2ccccc2)n1-c1ccccc1	.	.	1	9	-3	3.1	.
CCN(CC)NC(=O)Nc1ccccc1	-1	-35	13	7	1	5.8	3875
Cc1ccc(S(=O)(=O)N2CCN(c3ccc(N4CCOCC4)nn3)CC2)cc1[N+](=O)[O-]	-4	-3	8	6	9	1.6	5685
CC12CCC(=O)N1C(C(=O)NCc1ccccc1Cl)CS2 (configuration not stated)	-9	-3	6	1	-5	2.1	4960
O=C(CSc1nnc(-c2ccccc2)n1-c1ccccc1)N1c2ccccc2Sc2ccccc21	6	-18	8	1	1	-0.9	21718*
Cc1ccc(CNC(=O)C2CCN(S(=O)(=O)c3ccc4c(c3)OCCCO4)CC2)cc1	-10	-20	8	4	7	-4.2	7212
COC(=O)c1ccc(CN(c2ccccc2OC)S(=O)(=O)c2cccs2)o1	5	-24	-9	.	.	4.7	4772
COc1ccc(-c2csc(N3C(=O)C4C5c6ccccc6C(c6ccccc65)C4C3=O)n2)cc1 (configuration not stated)	1	-18	-1	15	6	-0.1	2282
O=C(NCCCN1CCN(Cc2ccccc2)CC1)C1CCN(c2nnc(-n3cccc3)s2)CC1	9	5	-4	5	13	-6.8	?
CCOc1ccc(C2C3=C(CCCC3=O)Nc3ccc4ncccc4c32)cc1 (configuration not stated)	2	4	4	0	-8	6.0	6411

Structures shown so far that contain a COOH group (two):
SMILES	BJeLR viability	PrP UTR inh	ugtP null kill	Mtb hypoxia inh	Mtb hypoxia inh growth	Sa RN4220 lethal	Bead autofluor
CCCc1c(O)nc(SCC(=O)O)[nH]c1=O	2	-18	10	14	7	6.1	4157
C[C@@]12CCC3[C@@](CCC4[C@@]3(C)CCC[C@@]4(C)C(=O)O)(CC1=O)C2 (some centres not stated)	.	-6	17	10	9	17	2920

(list continues)
SMILES	BJeLR viability	PrP UTR inh	ugtP null kill	Mtb hypoxia inh	Mtb hypoxia inh growth	Sa RN4220 lethal	Bead autofluor
COc1cccc2c(=O)n(CC(=O)NC3CCCCC3)ccc12	3	-10	6	2	6	-2.7	5418
CCS(=O)(=O)n1c(Cc2cccs2)nc2ccccc21	-3	-23	.	.	.	.	3019
CNC[C@H]1Oc2c(NS(=O)(=O)c3ccc(OC)cc3)cccc2C(=O)N([C@H](C)CO)C[C@@H]1C	.	-16	-3	5	5	3.5	3687
CCNc1nc(NC(C)(C)C)nc(N(CC)n2cnnc2)n1	7	-40	10	-1	-3	1.9	6882
CCCSc1nnc(NC(=O)c2sc3nc(-c4cccs4)ccc3c2N)s1	3	-12	-20	-8	9	0.3	6285
COc1ccc(CCN(C)C2CCCN(S(C)(=O)=O)C2)cc1OC (configuration not stated)	5	7	5	1	-4	4.1	.
CCCCNc1nc2cccnc2s1	3	-47	2	4	7	2.0	5686
Cc1cc(NC(=O)/C=C/c2ccc(Cl)cc2)no1	-12	-66	5	16	7	5.2	2456
CSc1ccc(S(=O)(=O)NCC(=O)OCC(=O)NCC2CCCO2)cc1[N+](=O)[O-] (configuration not stated)	5	-15	0	10	1	1.9	5205
COc1cc(-c2nc(CN3CCCCC3CCNC(C)=O)c(C)o2)ccc1F (configuration not stated)	2	2	3	-1	7	1.3	3805
Cc1ccc(S(=O)(=O)N(C)c2ccc(C(=O)Nc3ccccc3C(=O)N3CCOCC3)cc2)cc1	0	-18	3	-2	0	3.2	4095
CCc1cccc2c(C(=O)CSc3nncn3C)c[nH]c12	3	0	5	3	10	5.7	3415
Cc1cc2c(cc1S(=O)(=O)N1CCN(c3cccc(C)c3C)CC1)OCCN2C	17	-26	-17	-1	1	-12	4565
O=C(CN1C(=O)NC2(CCCCCCC2)C1=O)NCc1ccccc1Cl	.	5	1	-4	6	0.9	?
O=C(Nc1ccc(Cl)c(S(=O)(=O)N2CCCC2)c1)c1nn(CCO)c(=O)c2ccccc12	.	-18	-5	-2	-1	4.8	5835
CCN1C(=O)/C(=C\N2CCN(C(=O)c3ccco3)CC2)SC1=S	-6	-10	4	1	8	3.1	5796
COc1ccc(C=NNC(=O)c2cnccn2)c(OC)c1OC	.	.	1	2	1	-1.2	.
CCCCC(=O)N/N=C/c1c(O)n(-c2ccccc2)c(=O)[nH]c1=O	1	2	5	-7	-5	4.8	5597
Cc1[nH]c2ccccc2c1C(=O)CSc1ccccn1	3	-8	0	8	9	20	3134
O=C(COC(=O)Cc1ccccc1F)Nc1cccc(S(=O)(=O)NC2=NCCCCC2)c1	9	-20	10	5	-1	2.0	4300
Cc1cc(C)c2[nH]c(=O)c(CN(Cc3cccs3)C(=S)NCC3CCCO3)cc2c1 (configuration not stated)	17	-1	-8	3	5	4.6	2601
Cc1cc(S(=O)(=O)NC(C)C)ccc1OCC(=O)Nc1ccc2c(c1)OCCO2	-8	-9	7	-3	-9	7.1	3546
Cc1ncc([N+](=O)[O-])n1S(=O)(=O)c1cc(Cl)ccc1Cl	-8	-21	12	6	2	4.1	4538
